H5N1 CPE: antiviral screen in MDCK cells, H5N1 avian flu; inhibition, % at 50 µM; AID 740; 0.07% of 96,000 active; cytopathic effect, luminescence, 72 h; stronger effect = higher value; no value below 0 was filed and about half of the inactive calls have no number; reference of the scale not given here; in the data active = inhibition above about 25%
An asterisk follows results filed as active; i = inactive. Only part of the results is shown. The share of hits here may be higher or lower than overall.

SMILES	H5N1 CPE
O=C(c1ccc(N2CCCC2=O)cc1)N1CCN(c2ccccc2)CC1	0.3
Cc1cccc(OCc2n[nH]c(=S)o2)c1	0.4
Fc1ccc(CSc2nnc(-c3cccs3)o2)cc1	1.0
CCOc1[nH]n(-c2ccc(Cl)cc2)c(=O)c1C=Nc1ccc(OC)cc1	i
CCCCn1c(=O)[nH]c(=O)c2c1nc(COC(=O)c1c(C)noc1C)n2CCC	1.9
CCC(=O)Nc1nonc1-c1nc2ccccc2n1N(C(=O)CC)C(=O)CC	0.4
CCN(CC)CCOC(=O)c1cc2cc(COC)ccc2o1	1.1
O=C(c1ccc(F)cc1)N1CCN(Cc2ccccc2Br)CC1	i
O=C(NCCN1CCCC1)C1(S(=O)(=O)c2ccc(Cl)cc2)CC1	i
COC(=O)c1ccc2c(c1)NC(=O)C(N1CCCC1)S2 (configuration not stated)	i
Cc1nnc(SCC(=O)N2CCc3ccccc3C2)s1	i
CSc1ccc(Cl)c(C(=O)NC2CCCC2)c1	0.5
COc1ccc(N/N=C(/C#N)S(=O)(=O)c2nsc(C)c2C#N)cc1	i
O=C(Oc1ccnc2cc(Cl)ccc12)N1CCOCC1	6.7
Cc1ccc2c(COn3nnc4ccc(S(=O)(=O)N(C)C)cc43)cc(=O)oc2c1C	i
CCn1c(NCc2ccc(N(C)C)cc2)nc2ccccc21	i
Cc1ccccc1/C(N)=N/OC(=O)N1c2ccccc2Sc2ccccc21	8.5
CCOC(=O)C1=C(C)N(c2ccc(C)cc2)C(=O)/C1=C\c1cccs1	i
CCOc1c(Cl)cc(C(=O)NCCN2CCCCC2)cc1Cl	i
COc1ccc2c(C)cc(=O)oc2c1C	1.0
N#CC1=C(N)N(c2ccc(F)cc2)C(=O)C1	i
COC(=O)c1nn(-c2ccccc2)c(=O)cc1Oc1ccc(Cl)cc1	0.4
COc1ccc(CC(=O)NC2CCN(CC(=O)N3CCCc4ccccc43)CC2)cc1OC	i
Cc1ccc(-c2noc(C3CCCN(C(=O)c4ccc(F)cc4F)C3)n2)cc1 (configuration not stated)	1.2
CC(/C=N/Nc1nnc2c(n1)[nH]c1ccccc12)=C\c1ccco1	i
Cc1c(S(=O)(=O)Nc2cc(Cl)ccc2Cl)c(=O)n(C)c(=O)n1C	2.2
N#Cc1cc(S(=O)(=O)c2ccccc2)c(N)[nH]c1=O	0.4
CC1(C)NC(=O)N(CCCCOc2ccc(Cl)cc2)C1=O	4.8
O=C(NCCNS(=O)(=O)c1ccccc1Cl)c1cc(OCC(F)(F)F)ccc1OCC(F)(F)F	i
N#Cc1ccc(-c2csc(NNC(=O)c3ccccc3)n2)cc1	1.5
CCN1CCN(c2cc(SC(C)C)nc(-c3ccc(OC)cc3)n2)CC1	i
CCCCSc1nc(NCc2ccco2)c2c3c(sc2n1)COC(C)(C)C3	2.0
COC(=O)c1ccc(-c2ccc(C(=O)N3CCCN(C)CC3)cc2)cc1	i
O=C(Cn1cccc1C(=O)c1ccccc1)NCc1cccnc1	0.1
Cc1cc(NS(=O)(=O)c2ccc(Cl)cc2)nn1CC(=O)NCc1ccco1	0.8
CCOCCc1nnc(NC(=O)c2cc(OC)c(OC)c(OC)c2)s1	i
CC(=O)NCC(=O)N(C)C(C(=O)Nc1ccc2c(c1)OCCO2)c1ccccc1 (configuration not stated)	i
COc1cc(C2Nc3cc(Cl)c(S(N)(=O)=O)cc3S(=O)(=O)N2)cc(OC)c1OC (configuration not stated)	i
C=C(C)CN1C(=O)C(O)(CC(=O)c2ccc3c(c2)OCCO3)c2ccccc21 (configuration not stated)	i
Cc1ccc(Cn2nc(C)c(NC(=O)c3cc(C)no3)c2C)cc1	1.0
CC1CCCC(C)N1C(=O)Cn1c(=O)sc2ccccc21 (configuration not stated)	1.1
Cc1ccc(S(=O)(=O)O/N=C2\CCCc3ccccc32)cc1	i
CCn1c(SC)nnc1-c1sc2cc(Cl)ccc2c1Cl	0.9
COC(=O)c1cccc(S(=O)(=O)N(Cc2ccco2)Cc2cc3cc(OC)c(OC)cc3[nH]c2=O)c1	0.1
CCOC(=O)c1ccc(N2C(=O)CC(N3CCC(C#N)(c4ccccc4)CC3)C2=O)cc1 (configuration not stated)	0.6
O=C(c1ccccc1)c1cc2ccc(O)cc2oc1=O	i
O=C(CSc1nnc(-c2cccnc2)n1Cc1ccccc1)NCc1ccco1	0.4
COc1ccc(N2CCN(C(=O)CSc3nnc4c5cc(C)ccc5n(C)c4n3)CC2)cc1	i
Cc1ccc(-n2nc3c(c2NC(=O)C(C)(C)C)CSC3)c(C)c1	0.1
O=C(CCCOc1ccc(Cl)cc1Cl)N1CCN(c2ccccn2)CC1	0.6

(more compounds)
SMILES	H5N1 CPE
O=C(OCC(=O)c1c[nH]c2ccccc12)c1ccc(Br)o1	i
N#Cc1c(N)n(CCc2ccc(F)cc2)c2nc3ccccc3nc12	i
COc1ccc(C2CC(c3ccc(Cl)cc3)n3nc(N)nc3N2)cc1 (configuration not stated)	1.0
COc1ccccc1NS(=O)(=O)c1ccc(O)c(C(N)=O)c1	0.5
CC1CN(C(=O)CN2C(=O)NC3(CCCCCCC3)C2=O)CC(C)O1 (configuration not stated)	i
COc1cc(OC)c2c(C)cc(=O)oc2c1	0.3
CC(=O)N1c2ccc3ccccc3c2C(C)CC12CCCCC2 (configuration not stated)	2.6
COc1ccc(/C=C/C(O)=C2/C(=O)N(C)C3(C)CC2c2ccccc2O3)cc1 (configuration not stated)	0.1
CCCCOC(=O)c1ccc(NC(=O)C(=O)NCC2CCCO2)cc1 (configuration not stated)	0.1
COc1cccc(-c2nc(NC(C)C)c3ccccc3n2)c1O	1.5
CC12CCC(C(=O)N(NC(=O)c3ccc(O)cc3)C1=O)C2(C)C (configuration not stated)	0.9
CCOCCCNC(=O)C1CCC(CNS(=O)(=O)c2ccc(Cl)cc2)CC1 (configuration not stated)	0.2
O=C(CSc1ncn[nH]1)Nc1nnc(-c2ccccc2)s1	0.8
COC(=O)CC1Oc2ccccc2N(Cc2ccccc2)C1=O (configuration not stated)	i
CC(=NCc1cccnc1)C1=C(O)c2ccccc2C1=O	i
CCCCCC1CC(CC#CCN2CCOCC2)C(=O)O1 (configuration not stated)	0.2
COc1ccc(CNC(=O)/C=C/c2cc([N+](=O)[O-])ccc2OC(F)F)cc1OC	i
O=C(O)CCC1COc2ccccc2O1 (configuration not stated)	i
O=S(=O)(c1ccc(OCC(O)CN2CCN(c3ccc(F)cc3)CC2)cc1)N1CCOCC1 (configuration not stated)	5.9
O=C(COC(=O)C1CC2C=CC1C2)NCc1ccco1 (configuration not stated)	0.4
CN(C)P(=O)(C(Cl)=C(N1CCCCC1)N1CCCCC1)N(C)C	i
Cc1nc2cc(N3CCCCC3)c(NC(=O)c3cccnc3)cc2c(=O)n1Cc1ccccc1	i
COC(=O)c1cc(C#N)c(NCc2ccc(Cl)cc2Cl)nc1C	i
COc1ccc(-c2nnn(CCC(=O)O)n2)cc1	0.5
CC1=NN(c2ccc(C)cc2C)C(=O)C1C(c1ccccc1)C1C(=O)N(c2ccc(C)cc2C)N=C1C (configuration not stated)	i
O=C(CN1CCN(c2ccccn2)CC1)NC1CCCC1	i
COC(=O)c1ccc(C(=O)OC)c(NC(=S)N2CCN(c3ccccc3)CC2)c1	0.9
CCOc1ccc(S(=O)(=O)N2CCN(C(=O)c3sccc3C)CC2)cc1	i
COc1ccccc1N1CCN(C(c2ccc(F)cc2)c2nnnn2C(C)C)CC1 (configuration not stated)	0.2
O=C(Nc1nsc(-c2ccccc2)n1)c1cccs1	2.3
O=C(CSc1nnc2scc(-c3ccccc3)n12)Nc1nsc(-c2ccccc2)n1	7.6
CCN1C(=O)CC(n2c(C)nc3ccccc32)C1=O (configuration not stated)	0.8
COc1ccc(C(C[N+](=O)[O-])c2c(-c3ccccc3)cc3ccccn23)cc1 (configuration not stated)	i
Cc1ccccc1-c1nc(CS(=O)(=O)CC(=O)NCc2ccc3c(c2)OCO3)c(C)o1	0.6
O=C1CC(N(C(=O)c2ccco2)c2cccc(Cl)c2)C(=O)N1c1cccc(Cl)c1 (configuration not stated)	1.5
CC(=O)Oc1ccc(NC(=O)Cc2ccccc2)cc1	0.3
CCc1ccccc1OCc1nc2ccc(S(=O)(=O)N3CCOCC3)cc2[nH]1	i
CN(c1ccc(F)cc1)S(=O)(=O)c1ccc2[nH]cc(C(=O)O)c(=O)c2c1	i
N#Cc1nc(COc2ccccc2F)oc1NCCCn1ccnc1	0.5
Cc1[nH]c(=O)[nH]c(=O)c1CSc1nnc([C@H](CC(C)C)NC(=O)OC(C)(C)C)o1	0.9
CCC(=O)N1CCc2cc(S(=O)(=O)N3CCc4ccccc4C3)ccc21	0.8
CCc1nc(SCC(=O)c2cc(C)ccc2C)n[nH]1	i
CCOc1cc(/C=N/NC(N)=S)cc(Br)c1OCc1ccccc1C	i
CC(C)CNC(=O)c1ccccc1-c1ccccc1C(=O)O	1.6
N#Cc1cnn2c1nc(N1CCOCC1)c1ccccc12	0.8
O=C(NCc1ccco1)C1CC2CCC1C2 (configuration not stated)	0.2
Nc1c(C2=NCCO2)nnn1Cc1ccccc1	0.6
O=C1CCCCC(=O)N(c2ccccc2)c2ccccc21	0.6
N#Cc1nc(-c2ccco2)oc1N1CCN(Cc2ccccc2)CC1	i
CN1CC=C2C(C#N)=C(N)C(C#N)(C#N)C(c3cccc(Cl)c3Cl)C2C1 (configuration not stated)	i

Other structures
SMILES	H5N1 CPE
O=C(NC1CCCc2ccccc21)C1CCCO1 (configuration not stated)	i
Cc1ccc(OCc2nn3c(-c4ccco4)nnc3s2)cc1	i
COCCCN1C(=O)C(=O)/C(=C(/O)c2ccc3c(c2)OCCO3)C1c1ccc(C(=O)OC)cc1 (configuration not stated)	i
CCCNc1nc2c(c(=O)[nH]c(=O)n2C)n1CCCc1ccccc1	i
Cc1ccc(C)c(-c2cc(C(=O)NCc3cccs3)c3ccccc3n2)c1	i
CC(C)CCC1CC(CSC(=N)N)OC1=O (configuration not stated)	i
COc1ccc2nc3sc(C(=O)NCc4cccs4)c(N)c3cc2c1	i
CNc1oc(-c2ccc(Cl)cc2)nc1C#N	i
COc1ccc(-c2nc3ccncc3[nH]2)cc1OC	i
CC1Cc2ccccc2N1C(=O)c1ccnc(C(C)(C)C)c1 (configuration not stated)	3.3
CCC(C)NC(=O)C1CN(S(=O)(=O)c2ccccc2)CCN1S(=O)(=O)c1ccccc1 (configuration not stated)	2.9
O=C(Nc1cccc(Cl)c1)c1csc(-c2ccccc2)n1	1.0
COCCN=C1Sc2nc3c(C)cccc3cc2CN1Cc1ccco1	1.5
Cc1cc(-c2ccco2)n(CC(=O)NCc2ccco2)n1	i
Cc1ccc(N2CC(C(=O)Nc3ccccn3)CC2=O)cc1 (configuration not stated)	2.5
COc1ccc(C(=O)NC(C(=O)NCc2ccccn2)C(C)C)cc1 (configuration not stated)	0.6
CSc1ncc(Cl)c(C(=O)O)n1	i
O=C(COc1ccc(Cl)cc1)N(Cc1ccccc1)c1ccccn1	1.1
CCCCCCSc1nc(O)c(C2OC(=O)c3c2ccc(OC)c3OC)c(=O)n1-c1ccccc1 (configuration not stated)	0.2
CCOc1ccccc1NC=C1C(=O)OC(C)(C)OC1=O	i
O=C(NC1CC1)c1cccc(Nc2ccc(-c3ccc4c(c3)OCCO4)nn2)c1	i
COc1ccc(-c2cc3ccccc3n2CC(O)CN2CCOCC2)cc1 (configuration not stated)	i
CN(C)c1oc(COc2ccccc2F)nc1C#N	2.0
COc1ccc(C(C)=O)cc1COC(=O)Cn1cnc2ccccc2c1=O	i
COc1ccc(-n2nc(N)c3c(=O)oc(N(C)C)nc32)cc1	1.3
COc1ccc(CN2C(=O)CN=C2Nc2ccc(C)cc2C)cc1	i
CCOC(=O)Nc1nnc(-c2cccc(OC)c2)s1	0.3
CC(Sc1nnc(C(C)N(C)C)n1-c1ccc(Cl)cc1)C(=O)Nc1ccc2c(c1)OCO2 (configuration not stated)	0.2
COc1ccc(C(=O)NN(C)c2nc(-c3ccccc3)cc(C)c2S(C)(=O)=O)cc1	i
C=CCNc1ncnc2ccc(Br)cc12	0.8
COC(=O)c1c(N)sc(C(C)=O)c1C	i
Cc1ccccc1Oc1ccc(S(=O)(=O)NCCC(=O)O)cc1	i
O=C(NCCN1CCCC1=O)Nc1ccccc1	i
